# T cruzi repl – T. cruzi replication inhibition; T. cruzi beta-gal in NIH3T3, luminescence, 90 h; inhibition, % (no concentration beside the values); 300,000 tested, 1.4% active; AID 1885;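 active = mean inhibition across valid replicates above about 55%, limit read from the data; inconclusive = mean below that limit but half or more replicates reach it; inactive = mean below it, under half of replicates reach it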;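 note: signal also drops with host cell toxicity which is not excluded here; 0% = plate median of DMSO wells and 100% = zero luminescence signal; higher percent means less beta-gal luminescence so fewer parasites; stock transfer was 50 nL into about 50 µL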
# rRNA inh HTS – inhibitors of bacterial rRNA selective over humanized ribosomes; E. coli WT GFP vs humanized-ribosome RFP mutants, fluorescence, 24 h; active compounds read low; DMSO median 0, no signal -100; GFP signal change (wild-type ribosome), % (concentration not given with the values); 350,000 tested, 1.6% active;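 active = significant combined selectivity score with lowered wild-type GFP, culture density cut under 30%, mutant RFP and density less affected; inactive = any of these conditions unmet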; note: one replicate is shown; some compounds called inactive have numbers as strong as hits
# RanGTP-Imp inh – disruptors of Ran-importin-beta complex formation – biochemical, FRET, CFP-Ran, YFP-importin-beta, homogeneous, primary screen; AID 2216; inhibition, % (test concentration not listed); 300,000 tested, 1.1% active; cell-free CFP-Ran/YFP-importin-beta FRET ratio;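 active = most replicates above 15%; inconclusive = exactly half above 15%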;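 note: 0% = DMSO wells and 100% = Ran loaded with GDP instead of GTP; wells of about 40 µL received 100 nL stock; the first replicate is given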
# ALR inh – blocks human ALR sulfhydryl oxidase activity; inhibition, % (no concentration beside the values); purified ALR, DTT oxidation, H2O2 HRP-luminol luminescence; 290,000 tested, 3.8% active; P55789;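 active = mean and each replicate at 75% or more; inconclusive = only one of the two met; inactive = neither met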;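 note: stock transfer was 7.5 nL into about 7.5 µL; 0% = neutral wells and 100% = wells with inactivated enzyme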
# Target sequence (P55789 whole entry, looked up): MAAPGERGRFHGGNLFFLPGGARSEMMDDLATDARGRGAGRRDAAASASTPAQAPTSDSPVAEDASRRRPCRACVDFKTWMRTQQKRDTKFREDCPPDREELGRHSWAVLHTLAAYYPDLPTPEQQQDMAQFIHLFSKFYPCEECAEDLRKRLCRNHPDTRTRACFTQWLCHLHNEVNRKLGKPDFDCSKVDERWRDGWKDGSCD
# Calb FLC – affects C. albicans growth with fluconazole; C. albicans CaCi-2 (fluconazole-resistant clinical isolate) + fluconazole, Alamar Blue growth, 48 h; growth inhibition, % (concentration not given with the values); 300,000 tested, 0.57% active;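 active = most replicates above 75%; inconclusive = exactly half above 75%; inactive = most below 75%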;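 note: all wells also contain fluconazole at 8 µg/ml as a sub-toxic cotreatment; 0% = median of DMSO wells and 100% = median of geldanamycin control wells; wells of about 8 µL received 7.5 nL stock; the first replicate is given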
# AF4-AF9 inh – blocks AF4 peptide binding to human AF9 | AlphaScreen, biotin-AF4 peptide binding to FLAG-AF9 | inhibition, % at 10 µM | 350,000 tested, 0.47% active | AID 651704;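 active = every replicate reaching a set inhibition limit, whatever the replicate mean, cut at about 25% in these data; inconclusive = mean inhibition reaches that limit but some replicates miss it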;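 note: 0% = plate neutral control median and 100% = total signal loss; the record names both 10 and 1 µM as test concentration; the first replicate is given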
# Target sequence (P42568 whole entry, looked up): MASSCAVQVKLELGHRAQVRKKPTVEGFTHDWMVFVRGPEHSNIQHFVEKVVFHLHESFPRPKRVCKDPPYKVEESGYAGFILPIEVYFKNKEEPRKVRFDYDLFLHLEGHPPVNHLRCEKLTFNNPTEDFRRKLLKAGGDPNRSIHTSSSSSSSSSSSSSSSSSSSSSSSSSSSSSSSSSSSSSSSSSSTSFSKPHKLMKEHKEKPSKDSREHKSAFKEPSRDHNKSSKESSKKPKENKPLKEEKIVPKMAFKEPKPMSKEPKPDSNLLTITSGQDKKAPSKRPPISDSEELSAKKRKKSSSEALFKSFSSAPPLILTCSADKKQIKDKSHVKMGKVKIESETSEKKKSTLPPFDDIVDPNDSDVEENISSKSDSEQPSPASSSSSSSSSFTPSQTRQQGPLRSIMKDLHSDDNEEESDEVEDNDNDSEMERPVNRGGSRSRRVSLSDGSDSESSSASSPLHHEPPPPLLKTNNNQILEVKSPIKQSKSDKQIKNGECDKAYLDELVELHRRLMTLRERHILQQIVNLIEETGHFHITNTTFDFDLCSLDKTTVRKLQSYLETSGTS
# Beta cell apopt – blocks beta cell apoptosis; INS-1E cytokine-induced death, ATP luminescence, 48 h; percent of positive-control rescue, neutral wells zero; AID 435005; 300,000 tested, 0.8% active; protection from apoptosis, % (no concentration beside the values);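 active = all replicates at 75% or more, or half of them and the mean; inconclusive = half reach 75% but not the mean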;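 note: 0% = cytokine-treated negative control wells and 100% = positive control rescue; higher means more ATP so stronger rescue from cytokine killing; wells of about 40 µL received 100 nL stock; the first replicate is given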
# FGF22 binding – shifts melting point of recombinant human FGF22 | 340,000 tested, 1.5% active | AID 651658 | calls only at 9.99 µM | recombinant FGF22 thermal shift, SYPRO orange fluorescence; percent of sucrose octasulfate shift, DMSO zero;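 active = melting point raised past a set limit in the mean and every replicate; inconclusive = no clear call; three in four hits are not shown here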
# Target sequence (Q9HCT0 whole entry, looked up): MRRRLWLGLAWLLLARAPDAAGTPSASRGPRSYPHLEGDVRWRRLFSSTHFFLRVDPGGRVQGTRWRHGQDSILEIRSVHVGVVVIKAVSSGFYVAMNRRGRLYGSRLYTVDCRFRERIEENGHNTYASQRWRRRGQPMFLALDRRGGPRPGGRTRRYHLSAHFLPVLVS
# rRNA inh HTS OD600 – second read-out of rRNA inh HTS, no call of its own (marks repeat the call); OD600 change, %; measured here: OD600 growth;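 optical density of the mix in the first replicate; 0 = DMSO median and -100 = no signal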
# rRNA inh HTS RFP – further read-out of rRNA inh HTS, marked with its call; RFP signal change, %; measured here: RFP humanized mutant strains;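 first replicate; 0 = DMSO median and -100 = no signal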
# Starred values were filed as active, the others as inactive; i = inactive; ? = inconclusive; . = no result given; + = active, no number. A portion of the library. The share of hits here may be higher or lower than overall.
SMILES,T cruzi repl,rRNA inh HTS,rRNA inh HTS OD600,rRNA inh HTS RFP,RanGTP-Imp inh,ALR inh,Calb FLC,AF4-AF9 inh,Beta cell apopt,FGF22 binding
O=C(Cc1cccs1)N/N=C/c1ccc(OCc2ccccc2)cc1,1,7,-3,-8.1,3.3,4,-11,-7.0,-1,i
CCN(CC)c1ccc(/C=N/NC(=O)c2ccoc2C)cc1,1,-19,-32,-5.4,-2.3,.,-5,9.4,.,i
O=C(c1ccco1)N1CCN(c2c(-c3ccccc3)c3cc(Cl)ccc3[nH]c2=O)CC1,-7,.,.,.,3.6,3,13,.,.,.
CC(C)CC(=O)NC(=S)Nc1ccc(CN2CCOCC2)cc1,-17,8,6,2.1,2.5,.,8,.,3,i
COc1cc(CO)ccc1OCC(=O)Nc1cccc2ccccc12,4,-10,-11,-2.2,-1.2,-6,-2,-3.1,4,i
O=C(c1ccc2ccccc2n1)N1CCN(c2ccccc2O)CC1,10,.,.,.,1.7,98*,19,.,-3,.
CSc1cccc(NC(=O)Cn2cccc2)c1,-6,.,.,.,?,5,10,.,-9,.
CCCCOC(=O)c1ccc(NC(=O)COC(=O)C2CSC3(C)CCC(=O)N23)cc1 (centres undefined),-8,3,0,-1.2,.,-19,7,-9.0,3,i
COc1ccc(N2CCN(C(=O)COC(=O)c3oc4ccc(OC)cc4c3C)CC2)cc1,-3,6,6,1.7,-1.1,-5,-2,-0.6,8,i
CC(C(=O)Nc1ccccc1Sc1ccccc1)N(c1ccccc1)S(C)(=O)=O (centres undefined),23,.,.,.,?,2,-17,.,-16,.
COc1ccc(C2CC(=O)Oc3c(C(CCN4CCCC(C)C4)c4ccc(N(C)C)cc4)c(OC)cc(OC)c32)cc1 (centres undefined),10,4,14,-2.7,1.0,9,-3,44*,-16,i
C#CCN(C)CCCOc1ccc(Cl)cc1Cl,-7,.,.,.,-0.1,2,-8,4.0,.,i
Cc1ccc(C(=O)Nc2ccccc2N2CCN(C(=O)C(C)C)CC2)cc1C,28,.,.,.,-2.6,-12,2,.,.,.
CCCOC(=O)/C=C/c1c(C)[nH]c(=O)[nH]c1=O,-8,.,.,.,-0.4,0,-3,-8.6,2,i
CCN(C(=O)CSc1nccn1C)c1cccc2ccccc12,.,7,12,0.8,.,.,.,0.8,-7,i
Cc1[nH]c2ccccc2c1/C=N/NC(=O)CNC(=O)c1ccco1,-10,-9,-14,1.4,-4.5,95*,-4,5.1,1,i
Cc1ccc(-c2cnc(NC(=O)CCC(=O)N3CCCCC3)n2C)cc1,-17,.,.,.,-4.1,-10,-11,.,-5,.
CCOCc1cc(CN2CCC(n3nccc3NC(=O)C3CC3)CC2)ccc1OC,-1,5,8,1.4,3.2,.,7,1.1,.,i
Cc1cc(C(F)F)n2nc(C(=O)Nc3ccc(S(=O)(=O)N4CCCC4)cc3)nc2n1,-9,.,.,.,-0.3,-1,4,.,1,.
COc1ccc(C2C(C(=O)Nc3cccnc3)=C(C)Nc3nc(-c4cccs4)nn32)cc1OC (centres undefined),-7,1,1,1.7,1.1,6,-2,0.8,4,i
CCN(CC)C(=O)CSc1nc2c(sc(=S)n2-c2ccccc2)c(=O)[nH]1,-4,-6,-15,0.3,0.5,2,-4,-2.4,2,i
O=C(NNC(=S)Nc1ccc(F)c(Cl)c1)c1ccccc1Br,2,-60,-76,-22,1.0,68,107*,2.9,6,+
C/C(=N\NS(C)(=O)=O)c1ccccc1,-8,.,.,.,1.9,9,-23,.,-2,.
O=C1[C@@H]2Cc3ccccc3CN2C(=O)N1c1cccc(F)c1,-2,.,.,.,1.7,-17,-1,.,-5,.
COc1ccc(OC)c(Nc2nc(NCCO)c3ccccc3n2)c1,56*,4,-11,2.6,4.1,59,8,18,15,i

# The closing 3 records of the part before are carried over, then new ones follow:
SMILES,T cruzi repl,rRNA inh HTS,rRNA inh HTS OD600,rRNA inh HTS RFP,RanGTP-Imp inh,ALR inh,Calb FLC,AF4-AF9 inh,Beta cell apopt,FGF22 binding
C/C(=N\NS(C)(=O)=O)c1ccccc1,-8,.,.,.,1.9,9,-23,.,-2,.
O=C1[C@@H]2Cc3ccccc3CN2C(=O)N1c1cccc(F)c1,-2,.,.,.,1.7,-17,-1,.,-5,.
COc1ccc(OC)c(Nc2nc(NCCO)c3ccccc3n2)c1,56*,4,-11,2.6,4.1,59,8,18,15,i
O=[N+]([O-])c1ccn(-c2nc(-c3ccccc3)cc(C(F)(F)F)n2)n1,47,9,2,0.4,3.9,.,-8,5.8,-8,i
CN1C(=O)/C(=C/c2ccc3c(c2)OCO3)N=C1c1ccccc1,0,.,.,.,17*,1,3,.,3,.
COc1ccc(CN(Cc2cc3cccc(C)c3n3nnnc23)C(=O)N2CCOCC2)cc1,1,2,4,1.0,2.0,3,-6,-2.4,-9,i
CC(=O)c1ccc(NS(=O)(=O)c2ccc3c(c2)N(C(C)=O)CCO3)cc1,-3,9,6,0.5,-2.4,1,-3,-2.1,3,i
Cc1ccc(-c2nnc(SCC(=O)CC(=O)Nc3ccccc3)n2C)cc1,4,.,.,.,?,.,-2,.,-10,.
C=CCNC(=S)NNC(=O)c1ccc(Br)cc1,-17,.,.,.,0.8,69,-9,.,2,.
NNc1nc2sc3c(c2c(=O)n1-c1ccccc1)CCCC3,7,-17,-5,1.1,1.6,13,0,1.0,25,i
O=C1Cc2cc(S(=O)(=O)N3CCN(c4cccc(Cl)c4)CC3)ccc2N1,4,2,7,2.0,-4.5,6,1,-7.8,-7,i
COc1ccc(S(=O)(=O)c2c(O)c3ccc(C(=O)Nc4cccc(F)c4)cc3[nH]c2=O)cc1,-18,4,9,1.3,3.7,6,12,-34,.,i
O=C(CNC(=O)c1ccccc1)NCCc1ccc(O)c(O)c1,-3,-1,1,-4.9,7.1,.,-13,6.1,-6,i
CN(CCc1ccccn1)C(=S)NC(=O)c1ccco1,-6,.,.,.,-1.5,13,2,.,-2,.
Cc1ccc(COC(=O)c2ccc3ccccc3n2)cc1,-12,-27,-49,7.3,-0.4,3,-11,1.2,-2,i
O=C1C(Cl)=C(Nc2ccc(O)cc2)C(=O)c2ccccc21,63*,6,9,11,6.6,33,2,21,6,i
CCOC(=O)NC(Nc1nc2ccccc2s1)(C(=O)OCC)C(F)(F)F (centres undefined),0,.,.,.,-0.1,1,-13,.,3,.
COc1ccc(Br)cc1CN1CCN(Cc2c[nH]c3ccccc23)CC1,26,-16,-9,21,5.6,8,-1,22,79*,i
Cc1cc(C)cc(OCC(=O)Nc2ccc(N3CCOCC3)cc2N2CCOCC2)c1,.,-2,6,0.0,.,8,.,3.5,2,i
Cc1cccc(C)c1OCCOC(=O)c1cccc(S(=O)(=O)N2CCOCC2)c1,.,.,.,.,.,0,.,-2.7,-4,i
COc1cccc(NC(=O)Nc2ccc3c(c2)OCO3)c1,-4,1,3,0.7,4.6,-11,-9,-8.3,0,i
O=C(Nc1ccc(C(=O)N2CCOCC2)cc1)c1cccc([N+](=O)[O-])c1,-2,1,4,-2.6,?,-9,-9,-2.2,-9,i
CCS(=O)(=O)Nc1cc2c3c(c1)CCN3C(=O)CC2,-13,-2,-5,-3.3,1.9,-36,27,-1.9,-9,i
O=C(CSC1=NNC(c2ccccn2)S1)Nc1ccc(C(F)(F)F)cc1 (centres undefined),18,-8,-9,-2.4,-0.6,.,-1,-6.5,9,i
Cc1cc(C)c(C(=O)COC(=O)C2CCN(c3ccc(C(F)(F)F)cn3)CC2)cc1C,5,2,7,-0.5,.,4,-12,-12,-4,i
O=C(NCCc1cn2ccsc2n1)C1CCCCC1,-12,-3,0,-2.1,?,-17,5,1.8,-4,i
Cc1ccc(S(=O)(=O)Nc2c(O)ccc3ccccc23)cc1,-5,.,.,.,-0.8,88*,22,.,0,.
COc1ccc(C2(c3ccc(OC)cc3)NC(=O)N(CC(=O)NCC(F)(F)F)C2=O)cc1,0,-3,11,-1.6,6.7,.,-4,-20,-4,i

# Single entries from above:
# For rRNA inh HTS RFP, `Cc1cc(C)cc(OCC(=O)Nc2ccc(N3CCOCC3)cc2N2CCOCC2)c1` has the entry 0.0
# For Calb FLC, `Cc1ccc(-c2nnc(SCC(=O)CC(=O)Nc3ccccc3)n2C)cc1` has the entry -2
# For rRNA inh HTS, `O=C(CNC(=O)c1ccccc1)NCCc1ccc(O)c(O)c1` has the entry -1

# Some of the entries above, reformatted:
Cc1ccc(-c2nnc(SCC(=O)CC(=O)Nc3ccccc3)n2C)cc1
- T cruzi repl: 4
- rRNA inh HTS: .
- rRNA inh HTS OD600: .
- rRNA inh HTS RFP: .
- RanGTP-Imp inh: ?
- ALR inh: .
- Calb FLC: -2
- AF4-AF9 inh: .
- Beta cell apopt: -10
- FGF22 binding: .
Cc1cc(C)cc(OCC(=O)Nc2ccc(N3CCOCC3)cc2N2CCOCC2)c1
- T cruzi repl: .
- rRNA inh HTS: -2
- rRNA inh HTS OD600: 6
- rRNA inh HTS RFP: 0.0
- RanGTP-Imp inh: .
- ALR inh: 8
- Calb FLC: .
- AF4-AF9 inh: 3.5
- Beta cell apopt: 2
- FGF22 binding: i

# Following part.
SMILES,T cruzi repl,rRNA inh HTS,rRNA inh HTS OD600,rRNA inh HTS RFP,RanGTP-Imp inh,ALR inh,Calb FLC,AF4-AF9 inh,Beta cell apopt,FGF22 binding
O=c1cc(-c2ccc(O)c(O)c2)oc2c(C3O[C@H](CO)[C@@H](O)[C@H](O)[C@H]3O)c(O)cc(O)c12 (some centres undefined),1,2,8,-3.9,11,99*,-11,.,3,i
O=C(CSc1ccc(-c2ccco2)nn1)Nc1cccc(F)c1,8,-14,-9,2.7,-1.2,-14,-10,-5.4,0,i
Cc1cccc(C)c1NC(=O)C(NC=O)c1ccc(N(C)C)cc1 (centres undefined),-16,.,.,.,6.4,29,-18,.,.,.
Cc1ccc(/C=N\NC(=O)Cn2c(C)nc3ccccc32)o1,-12,.,.,.,2.0,.,-5,.,2,.
COc1cc(C)c(CN2CCC(Oc3ccc(C(=O)N4CCCC4)cc3)CC2)cc1C,33,0,3,0.5,-0.3,-25,-9,5.0,-3,i
O=C(NCc1ccccc1CN1CCCC1)C1CCN(S(=O)(=O)c2ccc(Cl)cc2)CC1,.,6,1,-1.6,.,3,.,-2.0,2,i
CC(=O)c1c(N2CCC(C(N)=O)CC2)nc(=S)n(-c2ccccc2)c1C,-12,.,.,.,4.0,-15,2,.,-8,.
CCCC(=O)NC(c1ccccc1)c1c(O)ccc2ccccc12 (centres undefined),34,-28,-46,-4.1,-1.0,2,20,-5.5,-7,i
O=S1(=O)CCOCCCN1Cc1ccccc1Br,-17,6,4,-3.0,1.1,-9,2,1.2,0,i
COc1ccc(-n2nc(C(=O)NCC(=O)NC3CCCC(C)C3C)c3ccccc3c2=O)c(OC)c1 (centres undefined),5,12,4,0.5,0.2,-1,29,-0.8,28,i
COc1ccccc1/C=C1\Cc2ccccc2C1=O,-3,-2,-6,-4.8,-0.1,-19,-10,2.1,-7,i
